# Bioassay records deposited in PubChem by several laboratories.
# Env fusion inh – inhibitors of HIV Env-mediated cell fusion | HeLa-JRFL Env/CEM21 cell fusion, luciferase | hit rate 1.1% among 360,000 | AID 651610 | inhibition, % at 12.3 µM;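 active means mean replicate inhibition score of at least 50 and every replicate individually at or above 50; inconclusive means only one of the two criteria met; inactive means mean below 50 and not all replicates reaching 50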;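 further: 0% = plate neutral controls and 100% = maraviroc near 300 nM; one replicate is shown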
# MT1-MMP act inh – blocks activation of human MT1-MMP | P50281 | HT1080 RFP-PRO-GFP cells, GFP/RFP ratio fluorescence, overnight; percent of plate control window, DMSO zero | hit rate 0.061% among 360,000 | GFP/RFP ratio change, % at 20 µM | AID 651647;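 active means GFP/RFP ratio change of at least 30% with cell ATP level not reduced by more than half and red fluorescence within 50% of control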; further: strong numbers were not always called active
#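 Assay system: HT1080 RFP-PRO-GFP cells | Dosing: 20 µM single dose, 1% DMSO | Incubation: Cells overnight before dosing, compound overnight, 37 °C, 5% CO2 | Evaluation: GFP/RFP fluorescence ratio | Control set: DMSO-only wells and HT1080 RFP-L50D-GFP cell wells as references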
# Rce1 inh – inhibitors of yeast Ras-converting enzyme; Q03530; calls only; yeast membranes, quenched prenylated peptide cleavage fluorescence; hit rate 0.27% among 290,000;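 active means fall in fluorescence gain of 50% or more versus controls, with final raw signal at or below 3038400; inconclusive means same 50% fall but final raw signal above 3038400; inactive means fall in fluorescence gain under 50%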;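 further: plate controls were neutral control wells for no effect and wells lacking membranes for full effect; tested at 10 µM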
# Target sequence (Q03530 whole entry, looked up): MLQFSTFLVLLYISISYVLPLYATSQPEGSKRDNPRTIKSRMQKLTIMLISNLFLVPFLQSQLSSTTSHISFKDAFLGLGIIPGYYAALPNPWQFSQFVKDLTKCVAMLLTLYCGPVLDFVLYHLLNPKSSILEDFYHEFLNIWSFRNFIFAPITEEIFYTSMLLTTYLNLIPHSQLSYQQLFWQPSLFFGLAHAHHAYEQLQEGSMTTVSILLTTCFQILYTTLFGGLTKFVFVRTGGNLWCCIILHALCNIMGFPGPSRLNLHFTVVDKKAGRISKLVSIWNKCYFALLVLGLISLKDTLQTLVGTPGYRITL
# CSC inhib – blocks cancer stem cells | cancer stem cell-like cells viability, luminescence | AID 2717 | inhibition, % at 7.5 µM | hit rate 1.1% among 300,000;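 active means mean at 75% or more and at least half the replicates too; inconclusive means mean and replicates disagree; tested in HMLE shEcad cells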;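 further: 0% = median of negative and 100% = median of positive control wells; the first replicate is given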
# UUG fidelity – modulators of start codon recognition fidelity in yeast; activity score, % at 18.7 µM; hit rate 0.13% among 350,000; S. cerevisiae UUG-firefly luciferase reporter, luminescence/redox ratio;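 active means replicate mean at a twofold rise or more, about +100% in these data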;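 further: firefly luciferase made from a UUG start codon reports start codon fidelity; reporter light over untreated wells divided by growth signal over untreated wells; some hits fall short of that in this replicate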
# eIF4H FP inh – inhibitors of RNA binding by human eIF4H; inhibition, % at 35 µM; eIF4H fluorescence polarization binding assay; hit rate 0.94% among 290,000; Q15056;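 active means 50% or more with normal probe brightness, or confirmed in later tests; inconclusive means above 50% with abnormal brightness, or retests that disagree; inactive means below 50% or failed in later tests; about a fifth of its hits are not listed in these tables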;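 further: calls also rest on retests at 20 µM and on dose response follow-up; 0% = protein and probe with vehicle and 100% = probe without protein; strong numbers were not always called active; many hits fall short of the cut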
# PABP FP inh – blocks human PABP binding to poly(A) RNA; inhibition, % at 35 µM; hit rate 1% among 290,000; P11940; fluorescence polarization; AID 2014;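 active means 50% or more with normal probe brightness, or confirmed in later tests; inconclusive means above 50% with abnormal brightness, or retests that disagree; inactive means below 50% or failed in later tests; about a fifth of its hits are not listed in these tables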;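 further: calls also rest on retests at 20 µM and on dose response follow-up; controls were probe without protein and protein plus probe with vehicle; some compounds called inactive have numbers as strong as hits; many hits fall short of the cut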
# Target sequence (P11940 whole entry, looked up): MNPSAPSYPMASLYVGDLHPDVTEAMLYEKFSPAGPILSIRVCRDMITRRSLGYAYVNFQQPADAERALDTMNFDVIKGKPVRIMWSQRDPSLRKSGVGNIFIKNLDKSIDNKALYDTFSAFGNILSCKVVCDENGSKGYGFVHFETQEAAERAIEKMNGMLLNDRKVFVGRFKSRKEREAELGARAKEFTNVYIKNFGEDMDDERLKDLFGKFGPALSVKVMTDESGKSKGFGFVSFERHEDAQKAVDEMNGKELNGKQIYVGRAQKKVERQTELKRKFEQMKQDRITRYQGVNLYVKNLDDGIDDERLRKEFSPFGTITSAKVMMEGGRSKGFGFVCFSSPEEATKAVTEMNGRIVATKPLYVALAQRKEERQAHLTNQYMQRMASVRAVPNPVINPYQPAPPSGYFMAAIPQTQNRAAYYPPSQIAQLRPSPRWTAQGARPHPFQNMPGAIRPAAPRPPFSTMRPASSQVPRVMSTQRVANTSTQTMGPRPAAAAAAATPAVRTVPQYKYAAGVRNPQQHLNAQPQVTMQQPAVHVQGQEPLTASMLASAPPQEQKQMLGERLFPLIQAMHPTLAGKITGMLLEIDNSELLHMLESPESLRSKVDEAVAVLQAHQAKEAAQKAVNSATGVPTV
# eIF4H FP inh retest – further read-out of eIF4H FP inh, marked with its call; inhibition, %; compound at 20 µM; confirmation average;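 mean of two retest wells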
# PABP FP inh retest – also measured in PABP FP inh; calls as there; inhibition, %; compound at 20 µM; confirmation repeats;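 mean of two retest wells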
# MT1-MMP act inh RFP – second read-out of MT1-MMP act inh, no call of its own (marks repeat the call); RFP signal change, %; measured here: RFP expression control read;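 0 = vehicle wells; hits needed this value within 50% of zero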
# The depositor's hits bear a star; i = inactive; ? = inconclusive; / = no result given; + = active, no number; & = joins results of further samples; [ ] = remark or other dose. Random draw from the library. Share with any hit: about 2.9%.
# The first six entries, to show the layout:
SMILES,Env fusion inh,MT1-MMP act inh,MT1-MMP act inh RFP,Rce1 inh,CSC inhib,UUG fidelity,eIF4H FP inh,PABP FP inh,others
CC(C)=CCCC(C)N(C=O)C(C)CCC=C(C)C (stereo unspecified),/,-2,0,i,-3,/,/,/,
CN(C)C(=O)CSCc1c(Cl)cccc1Cl,/,2,3,i,-9,-17,-3,2,
Cc1ccccc1-c1nnc(SCC(=O)NCc2ccc3c(c2)OCO3)n1C,/,2,-1,i,14,5,-8,-4,
CCOC(=O)C1(Cc2ccccc2C(F)(F)F)CCN(CCCn2cccn2)CC1,6,-6,-4,i,48,-3,4,11,
Cc1c(C(=O)NCC(c2ccco2)N2CCCC2)sc2ccccc12 (stereo unspecified),9,1,2,/,27,-15,/,/,
Cc1ccc(Cn2c(SCC(C)C)nc3c2c(=O)[nH]c(=O)n3C)cc1,/,3,4,i,-6,-11,-11,-9,

# The list itself, previewed entries included:
SMILES,Env fusion inh,MT1-MMP act inh,MT1-MMP act inh RFP,Rce1 inh,CSC inhib,UUG fidelity,eIF4H FP inh,PABP FP inh,others
CC(C)=CCCC(C)N(C=O)C(C)CCC=C(C)C (stereo unspecified),/,-2,0,i,-3,/,/,/,
CN(C)C(=O)CSCc1c(Cl)cccc1Cl,/,2,3,i,-9,-17,-3,2,
Cc1ccccc1-c1nnc(SCC(=O)NCc2ccc3c(c2)OCO3)n1C,/,2,-1,i,14,5,-8,-4,
CCOC(=O)C1(Cc2ccccc2C(F)(F)F)CCN(CCCn2cccn2)CC1,6,-6,-4,i,48,-3,4,11,
Cc1c(C(=O)NCC(c2ccco2)N2CCCC2)sc2ccccc12 (stereo unspecified),9,1,2,/,27,-15,/,/,
Cc1ccc(Cn2c(SCC(C)C)nc3c2c(=O)[nH]c(=O)n3C)cc1,/,3,4,i,-6,-11,-11,-9,
CCOc1ccc(Nc2cc(C)nc3ccc(C)cc23)cc1,17,2,-7,i,2,/,/,/,
CCOC(=O)c1ccc(N2C(=O)C3CCOc4ccccc4C32)cc1 (stereo unspecified),-3,/,/,/,-2,-13,/,/,
CNc1ccc(Oc2nc([N+](=O)[O-])nn2C)cc1,-18,-2,4,i,-5,-15,9,-5,
CC(C)(C)NS(=O)(=O)c1ccc(NC(=O)c2cc(-c3ccccc3)nc3ccccc23)cc1,-58,-1,-6,i,0,-3,-1,2,

# The last 2 entries of the section above come first, to join the parts:
SMILES,Env fusion inh,MT1-MMP act inh,MT1-MMP act inh RFP,Rce1 inh,CSC inhib,UUG fidelity,eIF4H FP inh,PABP FP inh,others
CNc1ccc(Oc2nc([N+](=O)[O-])nn2C)cc1,-18,-2,4,i,-5,-15,9,-5,
CC(C)(C)NS(=O)(=O)c1ccc(NC(=O)c2cc(-c3ccccc3)nc3ccccc23)cc1,-58,-1,-6,i,0,-3,-1,2,
COc1ccccc1CNC(=O)CCC1N=C2c3ccccc3N=C(SCC(=O)NCC3CCCO3)N2C1=O (stereo unspecified),0,-2,-2,i,-17,-11,-13,4,
CCCCNS(=O)(=O)c1cc2c3c(c1)CCN3C(=O)CC2,2,2,1,i,0,-38,-12,-4,
CC(=O)Nc1ccc(OCCOc2ccc([N+](=O)[O-])cc2)cc1,-7,2,-2,i,-11,-18,4,0,
O=C(Nc1cccc(OCC(=O)N2CCOCC2)c1)c1cccc(Cl)c1,5,-2,-1,i,-2,-8,-9,-13,
c1ccc(CN2CCN(CCCNc3ccc4nnc(-c5ccccc5)n4n3)CC2)cc1,/,-8,-5,i,0,-16,-7,-14,
COc1ccc(CCNC(=O)C(=O)NCc2ccccn2)cc1,-9,0,1,i,-8,11,-3,-12,
CC(=O)c1ccc(NC(=O)/C=C/c2ccc(C)cc2)cc1,3,5,2,i,9,/,-9,-9,
N#Cc1ccc(COC(=O)c2ccc3c(c2)OCO3)cc1,-13,-1,3,i,0,-9,-4,3,
COc1cc(NC(=O)COC(C)=O)cc(OC)c1OC,4,-11,-6,i,-12,-11,3,1,
CN1CCN(S(=O)(=O)c2ccc(NC(=S)NC(=O)c3ccccc3)cc2)CC1,/,3,4,i,7,-2,-9,9,

# Compounds shown so far with an aryl thioether with sulfur outside any ring, in the order listed:
SMILES,Env fusion inh,MT1-MMP act inh,MT1-MMP act inh RFP,Rce1 inh,CSC inhib,UUG fidelity,eIF4H FP inh,PABP FP inh,others
Cc1ccccc1-c1nnc(SCC(=O)NCc2ccc3c(c2)OCO3)n1C,/,2,-1,i,14,5,-8,-4,
Cc1ccc(Cn2c(SCC(C)C)nc3c2c(=O)[nH]c(=O)n3C)cc1,/,3,4,i,-6,-11,-11,-9,

# (listing goes on)
SMILES,Env fusion inh,MT1-MMP act inh,MT1-MMP act inh RFP,Rce1 inh,CSC inhib,UUG fidelity,eIF4H FP inh,PABP FP inh,others
Cc1csc2ncc(C(=O)NCc3ccccn3)c(=O)n12,7,0,4,?,-14,-22,-9,5,
C=CCOC(=O)C1=C[C@H](c2cn(C(C)=O)c3ccccc23)C[C@H](OCc2ccc(CO)cc2)O1,0[16.7 µM],-7,-1,i,-10,12&-7,5,-4,
CCOC(=O)c1sc(Nc2nc3cc4c(cc3s2)OCO4)cc1C,/,1,0,i,0,-11,9,5,
CC(C)c1ccc(/C=N/Nc2ccc(C(=O)O)cc2)cc1,66*,0,6,/,-17,/,5,-11,
C/C=C\C(=O)Nc1cccc(C2=NOC3(C2)C[C@@H](C(N)=O)N(C(=O)C2(C)CC2)C3)c1 (stereo partly specified),15,4,3,i,13,0,0,3,
Cc1cc(C)c(S(=O)(=O)N/N=C/c2ccc3c(c2)OCO3)c(C)c1,-31,-8,3,i,-10,-6,8,-2,
O=C(CCc1nc2ccccc2[nH]1)NC1CCCCC1,-1,-3,5,i,-9,-8,-5,-4,
O=C(Nc1cccc(C(F)(F)F)c1)c1cc[n+]([O-])cc1,-11,3,2,i,4,/,-8,11,
O=C(O)c1cccc([N+](=O)[O-])c1C(=O)Nc1ccc2ccccc2c1,2,-1,5,/,10,-10,-8,8,
CCOC(=O)CN1C(=O)N[C@@H](c2ccco2)C(C(C)=O)=C1C,0,0,7,i,-8,-7,/,/,
C=CCn1c(=N)n(CC(=O)c2cccc([N+](=O)[O-])c2)c2ccccc21,-1,1,-2,i,7,/,2,6,
CN(CCOc1ccc(Cl)cc1)CC(=O)Nc1ccc(OC(F)(F)F)cc1,19,0,-3,i,13,-16,-8,2,
Cc1cc(Cl)c(OCCCn2cncn2)c(Br)c1,-255,-3,-2,i,4,-9,-14,-10,
O=C1c2ccccc2-c2c1cccc2C(=O)N1CCN(C(=O)c2ccco2)CC1,-45,-2,3,i,-8,-16,-10,-3,
Cc1cccc(N=Nc2cn[nH]c2-c2ccco2)c1,-17,-7,-6,i,1,/,-9,23,
COc1ccc(CNC(=S)Nc2cccc(F)c2)cc1,-20,1,-4,i,6,-24,1,9,
O=S(=O)(Nc1ccc(Cl)c(C(F)(F)F)c1)c1cnc[nH]1,/,-1,2,i,7,-7,-2,3,
COc1ccc(-n2cnnc2SCC(=O)Nc2cc(C)on2)cc1,10,-2,-3,i,-30,/,63*,18*,eIF4H FP inh retest=95*;PABP FP inh retest=80*
O=S1(=O)CC(O)C(Nc2ccc(Cl)cc2)C1 (stereo unspecified),/,0,5,i,-4,-12,-3,-2,
O=C(c1ccco1)N1CCN(Cc2c(Cl)cccc2Cl)CC1,-39,-3,0,i,-10,-1,1,-10,

# Retrieved by structure from above:
SMILES,Env fusion inh,MT1-MMP act inh,MT1-MMP act inh RFP,Rce1 inh,CSC inhib,UUG fidelity,eIF4H FP inh,PABP FP inh,others
CN(CCOc1ccc(Cl)cc1)CC(=O)Nc1ccc(OC(F)(F)F)cc1,19,0,-3,i,13,-16,-8,2,
COc1ccc(-n2cnnc2SCC(=O)Nc2cc(C)on2)cc1,10,-2,-3,i,-30,/,63*,18*,eIF4H FP inh retest=95*;PABP FP inh retest=80*
COc1ccc(CNC(=S)Nc2cccc(F)c2)cc1,-20,1,-4,i,6,-24,1,9,

# More compounds follow:
SMILES,Env fusion inh,MT1-MMP act inh,MT1-MMP act inh RFP,Rce1 inh,CSC inhib,UUG fidelity,eIF4H FP inh,PABP FP inh,others
Nc1nc(SCC(=O)N2CCCC2)[nH]c(=O)c1NC(=O)c1cccs1,6,0,5,i,6,/,-4,2,
O=C(Nc1cccc2ncccc12)c1cccnc1,/,0,2,+,-7,-16,2,32,
Cc1cc(C(=O)Nc2ccccc2Cc2ccccc2)no1,-20,-4,0,i,9,-4,-7,-6,
COc1cc(/C=C(/NC(C)=O)C(=O)O)cc(Cl)c1OCc1ccc(Br)cc1,-83,0,4,/,-7,/,-3,-2,
O=C1CN(C(=O)COC(=O)c2ccc(C(F)(F)F)cc2)c2ccccc2N1,-11,4,3,/,8,-13,/,/,
O=C(NCc1cccs1)c1cnc(Cl)c(Cl)c1,9,-1,0,i,-1,/,-6,2,
O=C(Nc1ccccc1N1CCCCC1)C1CCN(S(=O)(=O)c2cccc(C(F)(F)F)c2)CC1,7,-39,-24,i,9,8,/,/,
CCOc1ccc(S(=O)(=O)N2CCC(C(=O)NC3CC3)CC2)cc1Cl,10,2,-3,i,-4,-7,-10,0,
CCOc1ccccc1N1CC(C(=O)N2CCN(Cc3ccc(C#N)cc3)CC2)CC1=O (stereo unspecified),/,-4,-15,/,-5,4,/,/,
Cc1ccc(S(=O)(=O)N2CCN(C(=O)CCOc3ccccc3C)CC2)cc1C,16,0,-2,/,/,-2,/,/,
O=C(c1ccccc1F)N(NC(=O)C(O)(c1ccccc1)c1ccccc1)c1ccccc1,-5,-1,2,i,-6,/,-2,-17,
CCCn1nc(NC(=O)c2cccs2)c2cc3cc(OC)ccc3nc21,/,-15,-25,i,/,-4,-4,8,
C/C(CC(=O)NC1CCCCC1)=N\NC(=O)c1ccccc1C,8,-1,3,i,0,-12,-2,2,
Cc1cnc(C(=O)OCC(=O)Nc2ccc3c(c2)OCCO3)cn1,/,1,0,/,-14,-21,/,/,
Cc1ccc2nsnc2c1NC(=O)CCc1ccccc1,/,-2,0,i,0,/,7,-5,
CC(=O)NC(C1C(=O)CC(C)(C)CC1=O)(C(F)(F)F)C(F)(F)F,/,1,-3,i,-1,-14,7,9,
O=C1N(Cc2cccc(Cl)c2)C[C@@H]2C[C@@H](c3ccsc3)N3CCC[C@@]123,-8,-6,-1,i,/,/,0,-10,
O=C(CNC(=O)C1CCCCC1)OCn1nnc2ccccc2c1=O,-7,1,5,i,-4,/,1,4,
Cc1[nH]nc(N2CCCCC2)c1[N+](=O)[O-],19,3,5,i,2,-15,-2,2,
O=C(CCC(=O)Nc1ccc(Cl)cc1)N/N=C/c1ccc2c(c1)OCO2,-20,0,3,i,-7,-15,7,-1,
Cc1nn(-c2ccccc2)c(NC(=O)c2cccs2)c(-c2ccc(Cl)cc2)c1=O,/,2,4,i,-17,/,0,-5,
Cc1nc2cc(NCc3cccs3)ccc2n1C,-25,6,4,/,-7,-18,-8,-17,
COc1cccc(-c2nc(CS(=O)(=O)CC(=O)NCCc3ccc(C)cc3)c(C)o2)c1,2,-6,-1,i,3,-12,-4,-2,
